Screening results as filed in PubChem BioAssay.
Vero – Vero cell cytotoxicity, dose response, cytotoxicity control for Vif-APOBEC3G degradation inhibitor project, Vero cells (AID 1117358); Vero viability, CellTiter-Glo ATP luminescence, 72 h; reference of the scale not given here; CC50 in µM for hits, for the others viability, % at the top dose, mostly 40 µM; 7% of 2,300 active;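 active means viability down to 80% or less at some dose; inactive means above 80% at all doses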
The depositor's hits bear a star. A portion of the library; count on the stated rates, not on these rows.

Start of the listing, in advance (2 entries):
SMILES	Vero
O=C(O)c1cccc(CSc2nnc(COc3ccccc3)o2)c1	89.8%
O=c1ccccn1Cc1c(F)cccc1Cl	105.8%

Results, from the start:
SMILES	Vero
O=C(O)c1cccc(CSc2nnc(COc3ccccc3)o2)c1	89.8%
O=c1ccccn1Cc1c(F)cccc1Cl	105.8%
Cc1nc(NC(=O)/C=C/c2ccccc2)sc1C(=O)Nc1ccccc1	100.6%
CCOc1ccc(-n2c(Cc3cc(=O)[nH]c(=O)[nH]3)nnc2SCC(N)=O)cc1	102.5%
Nc1nc(Cl)cc(N2CCC(c3cc(-c4ccc(Cl)cc4Cl)n[nH]3)CC2)n1	>40µM*
O=C(CN(C1CCCCC1)S(=O)(=O)c1ccccc1)N1CCCC1	96.4%
Cc1onc(-c2ccccc2Cl)c1C(=O)N1CCN(c2cccc(Cl)c2)CC1	>40µM*
Cc1ccc(Cc2cnc(NC(=O)/C(C#N)=C/c3ccc(-c4ccc([N+](=O)[O-])cc4)o3)s2)cc1	99.2%

SMILES	Vero
O=C(N/N=C/C1CC=CCC1)c1ccccc1O (stereo unspecified)	100.2%
O=P(O)(CN1CCCCCC1)CN1CCCCCC1	91.2%
COc1ccc(S(=O)(=O)N(C(C)=O)c2ccc3oc(=O)sc3c2)cc1	100.5%
O=c1cc2c(n[nH]1)CCCC2	91.8%
Cc1cc(F)ccc1S(=O)(=O)Nc1ccccc1C(=O)Nc1ccc2[nH]c(=O)[nH]c2c1	94.2%
N#C/C(C(=O)N1CCOCC1)=C1/SC(Cc2ccccc2)C(=O)N1c1ccccc1 (stereo unspecified)	94.2%
O=c1nc2s/c(=C\c3ccco3)c(=O)n2nc1Cc1ccccc1	99.9%
O=[N+]([O-])c1ccc(-c2ccc(/C=N/c3c(-c4ccco4)nc4ccccn34)o2)cc1	91.9%

SMILES	Vero
COC(=O)C(NC(=O)c1ccco1)(Nc1nc(C)cs1)C(F)(F)F (stereo unspecified)	106.0%
O=[N+]([O-])c1cccc(/C(=N/N=C/c2ccccc2Br)C23CN4CN(CN(C4)C2)C3)c1	101.1%
Cc1nc(N)nc(C)c1Cc1ccccc1	92.7%
CCOC(=O)C1CCN(S(=O)(=O)c2cccc(-c3cn4cccnc4n3)c2)CC1	99.0%
O=c1c2cnn(-c3ccccc3Cl)c2ncn1Cc1cccnc1	91.5%
Cc1ccc(C(=O)Nc2cccnc2)cc1NC(=O)c1ccco1	104.3%
Cn1c(C(=O)NCCN2CCOCC2)cc2c(=O)n(C)c3ccccc3c21	83.6%
COC(=O)Cc1cc(=O)n2[nH]c(C)cc2n1	98.2%

SMILES	Vero
COC(=O)C(C(=O)Nc1ccc(OC)cc1)C1CCCCCC1 (stereo unspecified)	>40µM*
COC(=O)Cn1c(CCC(=O)O)ccc1-c1ccccc1	96.2%
Cc1ccc(C(C)C)c(OCCCN2CC(C)OC(C)C2)c1 (stereo unspecified)	90.8%
COc1ccc(OCCNS(=O)(=O)c2ccccc2)cc1	105.5%
Cc1c(NC(=O)c2cc(-c3cccs3)on2)c(=O)n(-c2ccccc2)n1C	96.5%
COCCNC(=O)CN1C(=O)CSc2ncccc21	91.6%
C=CCN(CC=C)C(=S)NC(=O)c1ccc([N+](=O)[O-])cc1	102.8%
Nc1nc(-c2ccc(F)cc2)cc(C(F)(F)F)n1	83.6%

SMILES	Vero
Cc1cccc(N(C(=O)Cn2nnc3ccccc32)C(C(=O)NCc2ccco2)c2ccncc2)c1C (stereo unspecified)	96.6%
O=C(C1CCCN1S(=O)(=O)c1cccc2cccnc12)N1CCN(c2ccccc2)CC1 (stereo unspecified)	96.7%
O=C(NCCS(=O)CCNC(=O)C(F)(F)F)C(F)(F)F	97.0%
CC(C)CC(=O)N(c1ccc(F)cc1)C1C=CS(=O)(=O)C1 (stereo unspecified)	98.0%
CCn1c(SC(C)C(=O)NC2CCCc3ccccc32)nnc1-c1cccs1 (stereo unspecified)	110.3%
CCc1ccccc1NC(=O)c1cccc(NC(=O)/C=C/c2ccco2)c1	96.1%
CCOC(=O)N1CCC(N2Cc3cccc(C(=O)Nc4cc(F)ccc4F)c3C2=O)CC1	101.6%
COC(=O)C(NC(=O)C(NC(=O)c1ccccc1)C(C)C)C(C)C (stereo unspecified)	98.7%

SMILES	Vero
COC(=O)CC(NS(=O)(=O)c1cccs1)c1cccc2ccccc12 (stereo unspecified)	92.6%
Cc1ccc(N2CSC3=C(C#N)C(c4cccs4)CC(=O)N3C2)cc1 (stereo unspecified)	97.9%
O=C(O)COc1ccc(NC(=O)c2ccco2)cc1	98.3%
COc1ccc(C(=O)N2CC3(C)CC2CC(C)(C)C3)cc1 (stereo unspecified)	94.0%
CCOC(=O)C(NC(=O)NC1CCCCC1)(c1ccccc1)C(F)(F)F (stereo unspecified)	101.1%
Cc1ccc(C)n1-c1ccc(-c2nnc3n2CCCCC3)s1	91.5%
FC(F)(F)c1cccc(Oc2ccc3c(C(F)(F)F)cc(C(F)(F)F)nc3n2)c1	96.4%
Cc1cc(Cl)c(S(=O)(=O)NCc2cccnc2)cc1OCC(=O)NC1CCCCC1	101.8%

SMILES	Vero
COc1ccc(-c2cc3ccc(OCc4nn[nH]n4)cc3oc2=O)cc1	104.8%
CCCN(CCC)CCCNC(=O)c1cn(CCOC)c(=O)c2c1c1ccccc1n2C	99.4%
O=C(/C=C/c1ccco1)Nc1ccc(Oc2ccccc2)cc1	>40µM*
COc1ccccc1C1=Nc2cccc3cccc(c23)N1	96.4%
CCN(CC)c1ccc(C2NC(=O)NC(C)=C2C(=O)Nc2ccccc2)cc1 (stereo unspecified)	99.3%
Cc1ccc([N+](=O)[O-])cc1NC(=O)CCSc1ccc(Cl)cc1	100.4%
COc1c(F)c(F)c(C(=O)Nc2ccc3oc(-c4ccncc4)nc3c2)c(F)c1F	96.1%
CCN(CC)CC(=O)Nc1nn(-c2ccccc2)nc1C(N)=O	93.5%

SMILES	Vero
Cc1ccc(OCCN2CCCCCC2)c(C)c1	98.1%
O=C(CCN1C(=O)/C(=C/c2cccs2)SC1=S)NC1=NCCS1	103.2%
O=C(Cc1cccs1)Nc1cccc(-c2nc3ccccc3o2)c1	96.7%
CC(C)CCn1cnc2c([nH]c3cccc(Cl)c32)c1=O	99.1%
CC(C)C(c1nnnn1C1CCCCC1)N1CCN(c2ncccn2)CC1 (stereo unspecified)	103.3%
COCCn1c(COc2cccc(OC)c2)nnc1SCC(=O)N1CCOCC1	102.1%
COc1ccccc1C1C=C(c2ccc(C)cc2)Nc2nnnn21 (stereo unspecified)	91.0%
Cc1cccc(CCNC(=O)CCc2nc(-c3ccccc3F)no2)c1	95.3%

SMILES	Vero
Cc1ccc(/C=C/C(=O)Nc2cccc(S(=O)(=O)N3CCOCC3)c2)o1	93.1%
COc1ccc(NCc2nc3ccccc3n2CCOc2ccccc2)cc1	88.0%
O=C(CSc1nnc(-c2ccco2)c(-c2ccco2)n1)Nc1ccccc1	94.1%
Cc1cc(C)n2nc(SCC(=O)Nc3ccc(F)cc3)nc2n1	97.9%
CCOc1ccc(C2c3c(oc4ccccc4c3=O)C(=O)N2CCCN2CCOCC2)cc1 (stereo unspecified)	97.2%
CCOc1ccc(OCC)c(S(=O)(=O)NCc2ccc3c(c2)OCO3)c1	105.4%
Cc1cc(NC(=O)CCNS(=O)(=O)c2cc(Br)cnc2N)ccc1Br	>40µM*
NS(=O)(=O)c1ccc(NC(=O)c2ccccc2C(=O)N2CCCCC2)cc1	93.7%

SMILES	Vero
CC(=O)NNC(=O)C(O)(c1ccccc1)c1ccccc1	88.5%
Cc1cc(Cl)c(S(=O)(=O)NCC2CCCO2)cc1OCC(=O)NC1CCCCC1 (stereo unspecified)	>40µM*
c1cncc(-c2nnc3sc(-c4ccco4)nn23)c1	92.8%
O=C(c1ccccc1)N1CCN(c2ccc(Cl)cc2)CC1	104.7%
Cc1cccc(-n2c(Cc3cc(=O)[nH]c(=O)[nH]3)nnc2SCC(=O)NCC2CCCO2)c1 (stereo unspecified)	94.2%
CSc1cccc(NC(=O)CN(c2cc(C)ccc2C)S(C)(=O)=O)c1	96.9%
Cc1ccc(NC(=O)CCCCCC2NC(=O)NC2C)cc1 (stereo unspecified)	109.3%
COc1ccc(C(=O)n2nc(-c3ccccc3)nc2SC)cc1	97.0%

SMILES	Vero
COc1ccc2nc3oc(C(=O)N4CCCCC4)cc3cc2c1	102.1%
O=C(NCc1ccc(F)cc1)c1c(O)c2cccc3c2n(c1=O)CCC3	90.8%
COc1ccc(/C=C/C2=NC(=C\N(C)C)/C(=O)O2)cc1	89.2%
Cc1oc(-c2ccc(Cl)cc2)cc1-c1nn2c(-c3ccoc3C)nnc2s1	80.9%
Cc1ccc(Cl)cc1N1CCN(C(=O)COc2ccc3c(c2)CCC3)CC1	97.5%
CCC(C)NC(=O)CSc1nc2n[nH]c(C)c2c(=N)n1-c1ccc(OC)cc1 (stereo unspecified)	98.4%
COc1ccc(C2C(C#N)=C(N)Oc3n[nH]c(C)c32)cc1Cn1nnc2ccccc21 (stereo unspecified)	89.2%
Cc1cc(-c2nc3c4c5c(sc4[nH]c(=O)n3n2)CCC5)c(C)o1	86.9%

SMILES	Vero
Cc1cc(C)cc(C(=O)N2CCC(C(N)=O)CC2)c1	94.6%
O=C(Nc1cnn(Cc2ccc(Cl)c(Cl)c2)c1)c1nc2ncccn2n1	96.0%
S=C(Nc1cccc(Cl)c1)NC1CCCCC1	98.6%
N#Cc1nc(Cc2ccccc2)oc1NCCCn1ccnc1	91.9%
CCOC(=O)C1CCCN(CCC(=O)Nc2ccc3c(c2)CCC3)C1 (stereo unspecified)	94.9%
N#Cc1c(N)sc(=S)c2c1CCCCC2	91.1%
COC(=O)c1cccc(NC(=O)c2cccc(OC)c2)c1	83.0%
CCCCCC(=O)Nc1nnn(CCC)n1	97.9%

SMILES	Vero
C=CCNC(=S)NNC(=O)c1ccccc1	89.5%
COc1ccc(OC)c(/C(O)=C/C(=O)C(=O)Nc2ccccc2OC)c1	92.6%
COc1ccccc1C1NC(c2ccccc2OC)C(C)C(=O)C1C (stereo unspecified)	91.6%
CCC(C)[C@H](NC(=O)N1CCCC1)C(=O)O (stereo partly specified)	96.9%
Cc1nc2nc(C)c(CCC(=O)N3CCN(c4ccccc4)CC3)c(C)n2n1	84.0%
CCCS(=O)(=O)NCc1cn2c(C)csc2n1	103.8%
COC(=O)CSc1nnc(-c2ccccc2OC)n1-c1ccc(C)cc1	100.1%
Cn1cccc1/C=C1\CCC/C(=C\c2cccn2C)C1=O	96.4%

SMILES	Vero
CSc1ccc(C2Nc3ccccc3-c3cc(C)nn32)cc1 (stereo unspecified)	>40µM*
CC1CCCCN1C(=O)c1ccc(S(=O)(=O)N2CCCCC2C)cc1 (stereo unspecified)	>40µM*
CC1=NN(C(=O)c2csc(C)c2)C(O)(C(F)(F)F)C1 (stereo unspecified)	101.1%
Cc1ccc(C)n1-c1cccc(C(=O)O)c1	94.4%
CCOC(=O)c1ccc(NC(=O)CSCc2ccco2)cc1	105.5%
COC(=O)c1c(NC(=O)CC2NCCNC2=O)sc2c1CCCC2 (stereo unspecified)	>40µM*
CCCS(=O)(=O)N1CCC(C(=O)NCCCN(CC)c2cccc(C)c2)CC1	97.1%
CCOC(=O)C1C(c2ccc(O)c(OCC)c2)NC(=S)NC1(O)C(F)(F)F (stereo unspecified)	93.4%

Copied from the results shown (22 entries):
SMILES	Vero
Cc1cc(-c2nc3c4c5c(sc4[nH]c(=O)n3n2)CCC5)c(C)o1	86.9%
Cc1cc(C)cc(C(=O)N2CCC(C(N)=O)CC2)c1	94.6%
O=C(Nc1cnn(Cc2ccc(Cl)c(Cl)c2)c1)c1nc2ncccn2n1	96.0%
S=C(Nc1cccc(Cl)c1)NC1CCCCC1	98.6%
N#Cc1nc(Cc2ccccc2)oc1NCCCn1ccnc1	91.9%
CCOC(=O)C1CCCN(CCC(=O)Nc2ccc3c(c2)CCC3)C1 (stereo unspecified)	94.9%
N#Cc1c(N)sc(=S)c2c1CCCCC2	91.1%
COC(=O)c1cccc(NC(=O)c2cccc(OC)c2)c1	83.0%
CCCCCC(=O)Nc1nnn(CCC)n1	97.9%
C=CCNC(=S)NNC(=O)c1ccccc1	89.5%
COc1ccc(OC)c(/C(O)=C/C(=O)C(=O)Nc2ccccc2OC)c1	92.6%
COc1ccccc1C1NC(c2ccccc2OC)C(C)C(=O)C1C (stereo unspecified)	91.6%
CCC(C)[C@H](NC(=O)N1CCCC1)C(=O)O (stereo partly specified)	96.9%
Cc1nc2nc(C)c(CCC(=O)N3CCN(c4ccccc4)CC3)c(C)n2n1	84.0%
CCCS(=O)(=O)NCc1cn2c(C)csc2n1	103.8%
COC(=O)CSc1nnc(-c2ccccc2OC)n1-c1ccc(C)cc1	100.1%
Cn1cccc1/C=C1\CCC/C(=C\c2cccn2C)C1=O	96.4%
CSc1ccc(C2Nc3ccccc3-c3cc(C)nn32)cc1 (stereo unspecified)	>40µM*
CC1CCCCN1C(=O)c1ccc(S(=O)(=O)N2CCCCC2C)cc1 (stereo unspecified)	>40µM*
CC1=NN(C(=O)c2csc(C)c2)C(O)(C(F)(F)F)C1 (stereo unspecified)	101.1%
Cc1ccc(C)n1-c1cccc(C(=O)O)c1	94.4%
CCOC(=O)c1ccc(NC(=O)CSCc2ccco2)cc1	105.5%

Further records.
SMILES	Vero
COc1ccc(NC(=O)c2ccc(-n3cccn3)nc2)cc1	97.2%
COc1ccc(NC(=O)c2cc3ccccn3n2)cc1	98.0%
COc1cccc(C(=O)Nc2nc3ccccc3[nH]2)c1	>40µM*
CN1C(=O)CC(N2CCN(C(=O)c3ccccc3)CC2)C1=O (stereo unspecified)	95.6%
CCOC(=O)N1CCN(S(=O)(=O)c2ccc(F)c(C(=O)Nc3cc(C)cc(C)c3)c2)CC1	96.4%
